VDR inh: blocks the human vitamin D receptor; hit rate 0.93% among 400,000; AID 504847; VDR-SRC2-3 peptide fluorescence polarization, 2 h; Potency, µM, for inactives: max response, negative = inhibition, hits mostly inhibitors; P11473; active = well fitted inhibition curve with a large enough effect; inconclusive = small, poorly fitted or top-dose-only effect, or another doubt; inactive = no such curve, though single readings can be large or run the other way; also: series mostly up to about 120 µM
Target sequence (P11473 whole entry, looked up): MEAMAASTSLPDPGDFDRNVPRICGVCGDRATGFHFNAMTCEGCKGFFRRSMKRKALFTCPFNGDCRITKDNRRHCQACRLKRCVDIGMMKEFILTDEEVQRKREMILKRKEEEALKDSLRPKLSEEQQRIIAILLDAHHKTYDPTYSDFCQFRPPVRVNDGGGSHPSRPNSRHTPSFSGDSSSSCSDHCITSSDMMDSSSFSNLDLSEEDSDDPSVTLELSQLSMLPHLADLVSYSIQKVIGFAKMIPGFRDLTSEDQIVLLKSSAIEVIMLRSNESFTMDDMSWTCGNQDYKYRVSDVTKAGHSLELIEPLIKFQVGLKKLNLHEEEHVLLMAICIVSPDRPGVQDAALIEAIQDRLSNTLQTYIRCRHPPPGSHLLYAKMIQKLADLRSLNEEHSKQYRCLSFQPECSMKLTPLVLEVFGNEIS
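The screen uses fluorescence polarization to detect compounds that interfere with recruitment of the SRC2-3 coactivator peptide to VDR; plates are read after 2 h at room temperature.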
The depositor's hits bear a star; ? = inconclusive; & = joins results of further samples. % is scaled to controls: 0 for no effect and ±100 for the full control effect; potency is read from the fitted curve at half-maximal effect. A portion of the library. The share of hits here may be higher or lower than overall.

SMILES | VDR inh
COc1ccc(NC(=O)COC(=O)c2ccncc2)c(OC)c1 | 6.2%
Clc1ccc(CN(Cc2ccc(Cl)cc2)c2nn[nH]n2)cc1 | -14.5%
O=S(=O)(O)c1nnc2sc3ccccc3n12 | -1.2%
COc1ccc(C(=O)Nc2nc3ccccc3[nH]2)cc1S(=O)(=O)N1CCOCC1 | -16.7%
Cc1cc(C(=O)Nc2ccccc2C#N)n(-c2ccccc2)n1 | -4.3%
COc1cccc(Nc2ncc3nc(-c4ccccc4)c(=O)n(C4CC4)c3n2)c1 | -5.9%
Cc1nc2ccccc2n1Cc1n[nH]c(=S)n1-c1ccc(Cl)cc1 | 20.6%
O=C(c1cccc([N+](=O)[O-])c1)N1c2nc(-c3ccco3)nn2C2(CCCCC2)[C@@H]2CCCC[C@@H]21 | -0.2%
Cc1ccc(C)c(-n2sc3ccc(F)cc3c2=O)c1 | 20µM*
COc1ccc(N2CC(C(=O)NCCC3=CCCCC3)CC2=O)c(OC)c1 (stereo unspecified) | -17.8%
O=C(C1CCCN(c2ncnc3c2nc2n3CCCCC2)C1)N1CCN(c2ccccc2)CC1 (stereo unspecified) | 2.2%
CCOC(=O)c1c(NC(=O)COC(=O)c2ncc(Cl)c(Cl)c2Cl)sc(C(=O)N(C)C)c1C | -1.0%
CCCc1cc(C(=O)Nc2ccc(F)c(Cl)c2)no1 | -16.3%
CCOc1cccc(-c2cc(-c3n[nH]c(=S)n3CC)c3ccccc3n2)c1 | -1.8%
CCNc1nc(N)c(C(=O)c2ccc(Cl)s2)s1 | 6.2%
Nc1ccc(Oc2ccc(Br)cc2)cc1 | -1.1%
c1ccc(Sc2ncccn2)nc1 | -9.9%
COc1ccc(CCNc2ccc([N+](=O)[O-])cn2)cc1 | -20.8%
Cn1c(=O)n(C)c2cc(/C=N/NC(=O)c3ccc(Cl)cc3)ccc21 | ?
CCOC(=O)N1CCN(C(=O)/C(=C/c2ccccc2OC)NC(=O)c2ccccc2)CC1 | -6.2%

Reformatted as labelled records: part of the list above
Clc1ccc(CN(Cc2ccc(Cl)cc2)c2nn[nH]n2)cc1
  VDR inh: -14.5%

O=S(=O)(O)c1nnc2sc3ccccc3n12
  VDR inh: -1.2%

COc1ccc(C(=O)Nc2nc3ccccc3[nH]2)cc1S(=O)(=O)N1CCOCC1
  VDR inh: -16.7%

Cc1cc(C(=O)Nc2ccccc2C#N)n(-c2ccccc2)n1
  VDR inh: -4.3%

Going on with the list.
SMILES | VDR inh
CCN(CC(=O)Nc1c(F)cccc1F)C(=O)CCN1C(=O)C2CC=CCC2C1=O (stereo unspecified) | 3.2%
Cc1ccc(C(=O)Nc2ccc(SC(F)F)cc2)s1 | -1.7%
COc1cccc(CNC(=O)CN(c2ccc(C)cc2)S(=O)(=O)N(C)C)c1OC | 2.1%
COc1ccc(C(=O)NCc2nnc(SCC(=O)N3CCC(C)CC3)o2)cc1OC | 10.4%
CCNC(=S)NNc1nc(N2CCOCC2)nc(N2CCOCC2)n1 | -26.2%
Cc1cc(C)c2c(c1)NC(=O)C2(O)CC(=O)c1cccs1 (stereo unspecified) | -15.7%
CC(OC(=O)c1ccc(CN2CCCC2=O)cc1)C(=O)Nc1ccc(Cl)cc1 (stereo unspecified) | 0.5%
C/C(=N/NC(=O)c1ccccn1)c1ccncc1 | -17.3%
CCC(C)NC(=O)CN(c1ccc(OC)cc1)S(=O)(=O)c1ccccc1 (stereo unspecified) | ?
C/C(=N\NC(=O)c1ccccc1Br)c1ccc(N2CCOCC2)cc1 | 13.6%
Nc1nc2cc(Br)ccc2o1 | -1.5%
S=C(Nc1ccccc1)N1CCCN1c1ccccc1 | 1.1%
Cc1nc2ccc(S(=O)(=O)N3CCCCC3)cc2s1 | -2.2%
Cc1ccc(NC(=O)CN2C(=O)NC3(CCCCC3)C2=O)cc1S(=O)(=O)N1CCOCC1 | 9.6%
O=C(N/N=C/c1cccs1)c1cccc(NC(=O)c2ccccc2Cl)c1 | -9.5%
O=C(CSc1nnc(-c2cccnc2)s1)Nc1ccnc2ccccc12 | -21.1%
Cc1cccc(OCCc2nnc(N)s2)c1C | -4.7%
COc1cc(/C=N/NC(=O)CNC(=O)c2ccco2)ccc1O | -14.7%
O=C(NCc1ccc(F)cc1)c1c(O)nc2ccccn2c1=O | 4.8%
O=C(Nc1ccc(Cl)cc1)Nc1nnc(CSCc2ccc(Cl)cc2)s1 | -6.7%

Arranged by number of heavy atoms (ascending): part of the list above
SMILES | VDR inh
Cc1cccc(OCCc2nnc(N)s2)c1C | -4.7%
Cc1nc2ccc(S(=O)(=O)N3CCCCC3)cc2s1 | -2.2%
O=C(Nc1ccc(Cl)cc1)Nc1nnc(CSCc2ccc(Cl)cc2)s1 | -6.7%
Cc1ccc(NC(=O)CN2C(=O)NC3(CCCCC3)C2=O)cc1S(=O)(=O)N1CCOCC1 | 9.6%

Other records.
SMILES | VDR inh
Cc1nc(NCCN2CCOCC2)c2oc3ccccc3c2n1 | 15.8%
CC(=O)Nc1ccc(Nc2nc3ccc(C)cc3n3nnnc23)cc1 | -1.6%
NS(=O)(=O)c1cc2c(cc1Cl)NC(C(Cl)Cl)NS2(=O)=O (stereo unspecified) | 1.6%
Cc1noc(C)c1C(=O)Nc1ccccc1N1CCCC1 | -2.5%
CC(C)CN(C(=O)CSc1nnc2c(Cl)cc(C(F)(F)F)cn12)C1CCS(=O)(=O)C1 (stereo unspecified) | 11.3%
Nc1nnc(CSCc2ccccc2)s1 | -4.8%
O=C1c2cccc3cccc(c23)C(=O)N1OS(=O)(=O)c1ccc(Cl)cc1 | -21.8%
Cc1ccnc2nc(NC(=O)c3ccccc3Cl)nn12 | 9.2%
O=c1c2ccccc2nc(-c2ccc(Cl)cc2)n1CCCCOc1ccc(F)cc1 | 13.3%
Cc1sc2nc(COC(=O)c3c(F)cccc3F)[nH]c(=O)c2c1C | -6.4%
COc1cc2cc(C(=O)N3CCC(Cc4ccccc4)CC3)[nH]c2cc1OC | 1.5%
O=C1/C(=C/c2ccco2)CCC1C1CCCC1 (stereo unspecified) | -8.5%
O=C(/C=C/c1ccccc1)CC(O)(c1ccccc1)C(F)(F)C(F)F (stereo unspecified) | ?
Cc1cc(C)n2nc(-c3ccc(Cl)cc3)nc2n1 | 14.8%
COc1ccc(-n2c(C)cc(C(=O)COc3ccc(C)nc3[N+](=O)[O-])c2C)cc1 | -6.5%
Cc1ccc(S(=O)(=O)N(C)C)cc1NC(=O)C1CCCCN1S(=O)(=O)c1ccccc1 (stereo unspecified) | 1.2%
Cc1ccc(C(=O)N2CCN(c3ccccc3O)CC2)cc1S(=O)(=O)N1CCCCC1 | -5.7%
COC(=O)c1ccc(OC(=O)c2ccncc2)cc1O | 6.2%
N#Cc1c(-c2ccc(F)cc2)nc2n(c1=O)CCS2 | 0.3%
COc1ccccc1C(=O)N/C(=C/c1ccccc1)C(=O)Nc1ccc(C(=O)O)cc1 | -0.3%
Cc1nn(C(C)C(=O)NCCc2ccco2)c(=O)c2nn(-c3ccccc3)c(C)c12 (stereo unspecified) | ?
COc1ccc(OC)c(/C=N\NC(=O)c2ccc(COc3ccc(C)cc3[N+](=O)[O-])o2)c1 | -18.7%
Cc1cc([N+](=O)[O-])ccc1-c1ccc(C2Nc3ccccc3C(=O)N2O)o1 (stereo unspecified) | -16.4%
COc1cc(NC(=O)c2ccc(C(=O)c3ccccc3)cc2)cc(OC)c1OC | -22.8%
COc1ccc(N2CCN(C(=O)c3ccc(CS(=O)(=O)c4ccc(Br)cc4)o3)CC2)cc1 | -2.2%&-9.5%
O=C1C=C(Nc2ccc(O)cc2)CC(c2ccco2)C1 (stereo unspecified) | -1.6%
CSc1ccc(S(=O)(=O)Nc2ccc3c4c(cccc24)CC3)cc1 | -5.5%
Cn1c(=O)cc(OCCCC(=O)N2CCN(c3ccccn3)CC2)c2ccccc21 | -6.2%
CC1=Nc2cc(C(=O)NC3CCCC3)ccc2Sc2ccc(Cl)cc21 | 11.8%
O=C(c1ccc(S(=O)(=O)N2CCCC2)cc1)N1CCN(c2ccccc2)CC1 | -1.1%
COc1ccc(N(CC(=O)NCCc2ccc(OC)c(OC)c2)S(=O)(=O)c2c(C)noc2C)cc1 | -14.6%
CC1CCN(S(=O)(=O)c2ccc3c(c2)N(CC(=O)NC(C)C)C(=O)CO3)CC1 | 8.5%
COc1ccnc(N2CCN(c3ccc(Cl)cc3)CC2)c1C#N | 12.6%
CCOC(=O)Cc1c(C)c2c(C)nn(-c3ccccc3)c2oc1=O | -11.4%
Cc1ccc(C(=O)N(CCCN(C)C)c2nc3ccc(Cl)cc3s2)cc1C | 14.2%
Cc1ccc(NC(NC(=O)c2cccnc2)C(Cl)(Cl)Cl)cc1 (stereo unspecified) | 5.7%
O=C(N=c1ccn(-c2nc3ccccc3nc2NS(=O)(=O)c2ccc(Cl)cc2)cc1)c1cccs1 | 5.8%
O=C(CN1C(=O)NC2(CCCC2)C1=O)Nc1cccc(Cl)c1Cl | 8.7%
COc1ccc(-c2nc(C#N)c(N3CCCCC3)o2)cc1 | -28.6%
C=CCNC(=O)C(=O)NCCCN1CCOCC1 | 8.6%
O=C(C(Cc1ccccc1)N1C(=O)C2C3CCC(C3)C2C1=O)N1CCCCC1 (stereo unspecified) | 20.1%
CCCOC1CCCN(Cc2nc(-c3ccc(C(=O)OC)cc3)no2)C1 (stereo unspecified) | -16.6%
O=C(O)/C=C/c1ccc(-n2ccnc2)cc1 | -8.0%
CCc1cc(C(=O)N2CCN(S(=O)(=O)c3ccc(Cl)cc3)CC2)sc1C | 2.6%
COc1cccc(N(CC(=O)N2CCN(c3ccccc3OC)CC2)S(C)(=O)=O)c1 | 5.5%
O=C(COc1cccc2c1CCNC2=O)Nc1ccc(Cl)cc1 | -3.6%
CCCc1[nH]c(=O)c(C#N)c2c1COC(C)(C)C2 | -1.6%
CC(C)OCCCNC(=O)c1ccc(NS(C)(=O)=O)cc1 | 9.0%
COc1cc(SC)ccc1C(=O)Nc1ccc(S(=O)(=O)N2CCCC2)cc1 | 3.9%
COc1ccc(C(=O)Nc2ccc3nc(N4CCN(C)CC4)cc(C)c3c2)c(OC)c1 | -15.2%
Cc1nc2ccccc2c(=O)n1NC(=O)c1c(F)cccc1F | 9.9%
Cc1cccc(N2CCN(Cc3nc(-c4ccccc4Cl)oc3C)CC2)n1 | -22.4%
COc1ccc(S(=O)(=O)NC2CC2)cc1-n1cnnn1 | 2.8%
CNC(=O)c1cc(Cl)c(OC)c(OC)c1 | -31.7%
C=CCn1c(SCC(=O)Nc2cccc(S(=O)(=O)N(C)c3ccccc3)c2)nnc1C1CC1 | 1.2%
O=C(CC1OC(=O)c2ccccc21)Nc1ccc(Cl)c(S(=O)(=O)N2CCCCC2)c1 (stereo unspecified) | -9.6%
COc1ccc(N2C(=O)C(Cl)=C(N(CCO)Cc3ccccc3)C2=O)cc1 | 5.6%
COc1ccc(C(=O)N/N=C/c2c(C)nn(-c3ccccc3)c2OC)cc1 | 0.4%
Cc1cc2nc(Sc3c([N+](=O)[O-])nc(C)n3Cc3ccccc3)[nH]c2cc1C | -18.6%
Cc1ccc(NC(=O)CSc2nnc(-c3ccoc3C)n2CCCN(C)C)cc1Cl | 13.7%
Next part:
SMILES | VDR inh
CCCCNC(=O)COC(=O)c1ccc(F)cc1Cl | 6.4%
Cc1ccccc1-c1oc(C)c(C)[n+]1[O-] | -6.4%
Cc1cccc(OC(C)C(=O)OCC(=O)N2CCN(c3ccccc3)CC2)c1 (stereo unspecified) | 1.0%
Oc1ccc2ccccc2c1/C=N/Nc1nnc(-c2ncc[nH]2)c2ccccc12 | -5.5%
CC(C)(C)c1ccc(S(=O)(=O)N2CCN(CC(=O)N3CC(=O)Nc4ccccc43)CC2)cc1 | 7.1%
CCOc1ccc(C(C)(C)C)cc1S(=O)(=O)N1CC(C)OC(C)C1 (stereo unspecified) | -5.0%
O=C(COc1ccc(S(=O)(=O)NC2CCCCC2)cc1)NCC1CCCO1 (stereo unspecified) | -1.4%
COc1ccccc1CNC(=O)c1cccnc1 | 1.0%
Cc1ccc(C)c(S(=O)(=O)Nc2ccc3sc(C)nc3c2)c1 | -1.5%
CC(C)c1ccc(NC(=O)c2ccc(Cn3nc(N4CCN(c5ccccc5)CC4)ccc3=O)o2)cc1 | 18.8%
Cc1nn(Cc2ccc(Cl)cc2)c(C)c1NC(=O)CCCn1nc(C)c([N+](=O)[O-])c1C | -16.8%
COc1ccc(NC(=O)CN2CCN(c3ccccc3C)CC2)cc1 | 10.4%
Cc1ccc(C)c(S(=O)(=O)N2CC(=O)Nc3ccccc32)c1 | -28.5%
CCCn1c2ccccc2c2nnc(SC(CC)C(=O)Nc3cc(C)on3)nc21 (stereo unspecified) | -12.8%
O=C(CN1CCN(c2ccccc2)CC1)Nc1c(C(=O)C2CC2)oc2ccccc12 | -1.4%
CC(C)Cn1c(SCc2cccc(F)c2)nc2ccsc2c1=O | 7.8%
CCC(C)C1/C=C\CCCC(=O)N1Cc1ccc(C)cc1 (stereo unspecified) | ?
Cc1cc(C)c(S(=O)(=O)N2CCOC2CNC(=O)C(=O)NCCCn2ccnc2)c(C)c1 (stereo unspecified) | 2.9%
COc1ccc(CCNC(=O)COC(=O)c2ccc(OC)cc2OC)cc1 | -14.0%
Cc1ccc(S(=O)(=O)N2[C@@H](c3ccccc3)C(C(=O)O)=CC[C@H]2c2ccc(Cl)cc2)cc1 | ?
COc1cccc(N2CC(NC(=O)c3cccs3)CC2=O)c1 (stereo unspecified) | 6.1%
CCOc1nc(-c2ccc(OC)cc2)ccc1-c1noc(C)n1 | -5.1%
Cc1c(Nc2ncnc3c2cnn3-c2ccccc2)c(=O)n(-c2ccccc2)n1C | -24.6%
CC(C)CN1CCCC(N2CCN(c3cccc(Cl)c3)CC2)C1 (stereo unspecified) | 1.8%
COc1cc(Cl)c(C)cc1NC(=O)CN1CCN(C(=O)C2CC2)CC1 | -6.0%
CC(C)C(=O)N(Nc1nc2ccccc2s1)C(=O)C(C)C | -4.4%
